StopGo RLuc: Primary qHTS Assay for Foot and Mouth Disease Virus Antivirals against NCGC Sytravon and CBC Compound Libraries: Renilla Luciferase Signal. AID 1745857, 2022. Potency, µM (highest dose often 57.5 µM), inactives show top-dose signal change, negative = less light. HEK cells with a luciferase reporter of 2A StopGo recoding. 0.32% of 120,000 active; active means well fitted falling curve with a large enough effect; inconclusive means small, poorly fitted or top-dose-only effect; inactive means no such curve, though single readings can be large or run the other way; also: nearly all actives have a fitted effect of over 55% in size; overnight with compound
2A firefly: Primary qHTS Assay for Foot and Mouth Disease Virus Antivirals against NCGC Sytravon and CBC Compound Libraries: Firefly Luciferase Signal; HEK cells with a luciferase reporter of 2A StopGo recoding; Potency, µM (titrated, usually from 57.5 µM), for the others: at the highest dose signal change, negative = less light; 0.23% of 120,000 active; active = well fitted falling curve with a large enough effect; inconclusive = small, poorly fitted or top-dose-only effect; inactive = no such curve, though single readings can be large or run the other way; also: nearly all actives have a fitted effect of over 60% in size; overnight with compound
An asterisk follows results filed as active; ? = inconclusive; & = joins results of further samples; [ ] = dose if it differs, or a comment. % is scaled to controls: 0 for no effect and ±100 for the full control effect; potency is read from the fitted curve at half-maximal effect. Some of the compounds tested, so the mix of outcomes need not match the whole.

Results follow in this order: StopGo RLuc, 2A firefly
- CC(C)c1cnc2c(c1SCC(=O)NCc1ccccc1)c(=O)n(C)c(=O)n2C
 : -4%, -18%
- CCCSc1ncc(Cl)c(C(=O)Nc2ccc(S(=O)(=O)N3CCCCC3C)cc2)n1 (centres undefined)
 : 150%[activator], 24%
- COc1ccc(C(=O)Oc2ccccc2OC)cc1Br
 : 10%, 16%
- COc1cc(OC)c(NC(=O)C2CCN(S(=O)(=O)c3ccc4c(c3)oc(=O)n4C)CC2)cc1Cl
 : -3%, -3%
- CC(SC(=S)N(C)C)C(=O)NC(C)c1ccc(F)cc1 (centres undefined)
 : 13%, 1%
- Cc1ccc(CNC2C3CC4CC(C3)CC2C4)s1 (centres undefined)
 : -2%, ?
- Cc1ccc(Nc2nc3ccccc3c3nncn23)cc1C
 : -7%, 69%[activator]
- COc1ccc(C2C3=C(CC(C)(C)CC3=O)Nc3n[nH]c(-c4ccccc4)c32)cc1OC (centres undefined)
 : 50%[activator], 17%
- CCOc1ccc2nc(S(N)(=O)=O)sc2c1
 : -16%, 30%
- O=C(Cn1nc(-c2cccs2)c2ccccc2c1=O)Nc1ccc(N2CCCCC2)cc1
 : 1%, 4%
- CCOC(=O)C1=C(C)N(Cc2ccccc2)C(=O)NC1c1ccccc1F (centres undefined)
 : -30%, -18%
- Cc1ccc(C2=[N+]([O-])C(C)(C)C(c3ccc(C)cc3)=[N+]([O-])C2(C)C)cc1
 : 9%, 3%
- CC1CCN(S(=O)(=O)c2ccc3c(c2)CCN3C(=O)Nc2ccc(F)cc2)CC1
 : 5%, -1%
- CN=C1S/C(=C\c2sccc2C)C(=O)N1C
 : 10%, 99%[activator]
- CC1=C(c2ccc(F)cc2)S(=O)(=O)NC1=NCc1ccccc1Cl
 : 13%, -12%
- Cc1cc(C)c(NC(=O)C(C)SCCO)c(C)c1 (centres undefined)
 : 4%[1.06 µM], 0%
- COc1ccc(Cl)cc1N(CC(=O)N1CCc2ccccc2C1)S(C)(=O)=O
 : 98%[activator], -5%
- Cc1ccc(C(=O)C(O)NC(=O)c2ccccc2)cc1 (centres undefined)
 : 17%, 156%[activator]
- CC(NC(=O)Cc1cccc(C(F)(F)F)c1)c1ccc(F)cc1F (centres undefined)
 : 21%, 0%
- C=CCNC(=O)Nc1ccc(NC(=O)CN(CC)CC)cc1
 : 2%, 3%
- Cc1noc2ncnc(N3CCCC(C(=O)NCc4ccc(F)cc4)C3)c12 (centres undefined)
 : -29%, -25%
- O=C(Nc1ccc(Cl)c(C(F)(F)F)c1)C(Cc1ccccc1)NS(=O)(=O)c1cccc2nsnc12 (centres undefined)
 : 52%[activator], -19%
- CCN1C(=O)COc2ccc(-c3nc(NC(=O)c4ccncc4)sc3C)cc21
 : ?, ?
- COc1ccc(NC(=O)C(Cc2ccccc2)n2cccc2)cc1OC (centres undefined)
 : -9%, -9%
- Cc1ccc(NS(=O)(=O)c2cccc(Cl)c2Cl)cc1S(=O)(=O)N(C)C
 : 36%[activator], 3%
- CC(C)(C)C(=O)NCCC(=O)NCc1cccc(NC(=O)C2CCCC2)c1
 : 24%, 3%
- Cc1ccc(-n2nc3ccc(NC(=O)COc4ccccc4)cc3n2)cc1Cl
 : -11%, 14%
- COc1cc(OC)c(OC)cc1CN1CCc2nc(N3CCN(c4ccccc4F)CC3)ncc2C1
 : ?, -9%
- Cc1ccc(-c2nc(Cn3cnc(C#N)n3)co2)c(C)c1
 : -11%, 30%[activator]
- CCCNc1c(NS(=O)(=O)c2ccc(Cl)cc2)c(=O)oc2ccccc12
 : 22%, -1%

3 compounds drawn at random from the list so far:
Results follow in this order: StopGo RLuc, 2A firefly
- COc1cc(OC)c(OC)cc1CN1CCc2nc(N3CCN(c4ccccc4F)CC3)ncc2C1
 : ?, -9%
- O=C(Nc1ccc(Cl)c(C(F)(F)F)c1)C(Cc1ccccc1)NS(=O)(=O)c1cccc2nsnc12 (centres undefined)
 : 52%[activator], -19%
- CC(C)(C)C(=O)NCCC(=O)NCc1cccc(NC(=O)C2CCCC2)c1
 : 24%, 3%

Additional entries.
Results follow in this order: StopGo RLuc, 2A firefly
- COc1ccccc1CNC(=O)CCC(=O)N1Cc2ccccc2Oc2ncccc21
 : -12%, -20%
- O=C(/C(=C\c1ccc(Br)cc1)c1nc2ccccc2o1)c1ccccc1
 : 13%, 4%
- CCc1nn(CC(=O)N2CCN(c3cccc(C(F)(F)F)c3)CC2)c(=O)c2cc3occc3n12
 : -22%, -22%
- CS(=O)(=O)NC1CCN(C(=O)c2cc(Br)ccc2F)CC1
 : 4%, 10%
- CCN(CC)C(=O)Oc1ccc2c(=O)c(-c3ccc(Br)cc3)coc2c1
 : 7%, 176%[activator]
- O=C(CN1CSCC1=O)NC(c1ccc(F)cc1)C1CCCC1 (centres undefined)
 : -2%, 16%
- Cc1nn(CC(=O)N(CC2CCOC2)C2CC2)c(=O)c2ccccc12 (centres undefined)
 : -10%, -3%
- CCCN(Cc1ccc(OCC)cc1)Cc1cc(=O)n2ccc(C)cc2n1
 : -8%, 0%
- Cc1ccc(-c2cc(C(=O)OCC(=O)N3CCCC3)c3ccccc3n2)o1
 : -12%, 0%
- Cc1ccc2c(CN3CCCCC3)cc(=O)oc2c1C
 : 12%, 0%

Full records, quoted from the list. Screens in order: StopGo RLuc	2A firefly
Profile of `CS(=O)(=O)NC1CCN(C(=O)c2cc(Br)ccc2F)CC1` → 4%	10%
Profile of `O=C(CN1CSCC1=O)NC(c1ccc(F)cc1)C1CCCC1` (centres undefined) → -2%	16%

Next compounds follow.
Results follow in this order: StopGo RLuc, 2A firefly
- Cc1ccc(C(c2ccccc2)c2c(C)[nH]c3ccccc23)s1 (centres undefined)
 : 47%&27%[activator], 26%&57%
- CC(=O)Nc1ccc(NC(=O)NC(C)C)cc1
 : 5%, 19%
- COc1ccc(CN2CCCCCC2c2cccs2)c(OC)c1 (centres undefined)
 : -8%, -15%
- CNC(=O)CCCN1C(=O)CCn2nc(-c3cn(C)c4ccccc34)cc21
 : 16%, 1%
- CC(C)C(=O)Nc1ccc(I)cc1Cl
 : 9%, 35%[activator]
- Cc1cccc(CN2C(=O)N(c3ccc(C(C)C)cc3)S(=O)(=O)c3ccccc32)c1
 : 10%, -17%
- CCc1ccc(OCCNC(=O)OC)cc1
 : 16%, 101%[activator]
- Cc1ccc(NC(=O)CSc2ncc(S(=O)(=O)c3ccc(C(C)C)cc3)c(=O)[nH]2)cc1C
 : -14%, -2%
- CCOC(=O)N1CCN(C(=O)c2ccc(N3C(=O)CCS3(=O)=O)cc2Cl)CC1
 : -10%, 3%
- CCOc1cc(C(=O)NCc2n[nH]c(=O)c3ccccc23)cc(OCC)c1OCC
 : 9%, 9%
- CN(CCc1ccncc1)C(=O)c1cc(C2CC2)nc2ccccc12
 : 31%[activator], 38%[activator]
- CCC(=O)Nc1nnc(S(=O)(=O)N(C)Cc2ccc(Cl)cc2)s1
 : 1%, -17%
- Cc1ccc(/C=C2/CCc3c2nc2ccccc2c3C(=O)O)s1
 : 32%[activator], -81%
- CC(=O)N(c1cccc(C)c1)c1nc(CSc2nnc(C3CC3)n2C2CC2)cs1
 : 19%, 21%
- CC(=O)N1C=Cc2ccccc2C1CC(=O)Nc1ccc(S(=O)(=O)N2CCCCCC2)cc1 (centres undefined)
 : -33%, ?
- CCOC(=O)CNC(=O)c1ccc(C(=O)NCC(=O)OCC)cc1
 : 2%, 1%
- CCC(C)c1ccccc1OS(=O)(=O)c1ccc2oc(=O)ccc2c1 (centres undefined)
 : -18%, -8%
- CC(=O)c1ccc(NC(=O)CSc2nnc(NC(=O)Nc3ccccc3)s2)cc1
 : -1%, 37%[activator]
- COc1ccc(Cn2c(CCC(=O)Nc3ccccc3OC)nc3cccnc32)cc1
 : -4%, -14%
- CCOC(=O)c1c(C)n(C)c2ccc(O)cc12
 : -4%, -5%
- Nc1cc(C(Cl)=C(Cl)Cl)c(S(N)(=O)=O)cc1S(N)(=O)=O
 : 1%, -8%[11.5 µM]
- CSc1ccc(Cl)c(C(=O)Nc2cc(F)ccc2C)c1
 : 8%, 5%
- COc1ccc(Oc2ccc3[nH]c4c(c3c2)CCC/C4=N/O)cc1
 : 3%, 25%
- CN(C(=O)c1oc(=O)c2ccccc2c1-c1ccccc1)c1cccc(Cl)c1
 : 14%, -15%
- O=C(c1noc2c1CCCCC2)N1CCN(c2cccc(Cl)c2)CC1
 : 4%, -14%
- COc1cccc2c1Oc1ncccc1N(C(=O)CCC(=O)NCc1ccc(OC(C)C)cc1)C2
 : -1%, 12%
- CCOc1ccc(OCCOCCn2c(-c3ccc(Cl)cc3)nc3ccccc3c2=O)cc1
 : -5%, -5%
- COc1ccc2oc(-c3ccc(C)c(NC(=O)c4ccc(N5CCCCC5)c([N+](=O)[O-])c4)c3)nc2c1
 : -6%, -4%
- CCc1nn(CC(=O)NCCc2ccc(SC)cc2)c(=O)c2cc3sccc3n12
 : 12%, 21%
- Cc1cc(C(F)(F)F)c(C#N)c(SCc2cccnc2)n1
 : -15%, -15%
- Cc1c(C)n(C)c2ccc(C(=O)NCCc3ccc(Cl)cc3)cc12
 : -8%, 4%
- COc1ccc(OC)c(Nc2ncc3c(n2)CCN(Cc2cc(OC)c(OC)c(OC)c2)C3)c1
 : -17%, -10%
- CCc1ccc(C2=C(C)C(N3CCC(C(=O)Nc4ccc(F)cc4)CC3)=NS2(=O)=O)cc1
 : -9%, -19%
- CCCCN(CC)CCNc1ncnc2onc(-c3ccc(Cl)cc3)c12
 : -9%, -15%
- O=C(OCC1CCCO1)c1ccc2c(c1)N(Cc1ccccc1F)C(=O)c1ccccc1S2(=O)=O (centres undefined)
 : -11%, -16%
- Cc1[nH]c2ccc(C(=O)N(C)CC(=O)NC(C)(C)C)cc2c1C
 : 11%, 6%
- CCN(C(=O)Cn1c(=O)n(CC2CCC(C(=O)NC)CC2)c(=O)c2sccc21)c1ccccc1 (centres undefined)
 : -11%, -17%
- CC(C)(C)C(=O)N1CCN(c2ccc(F)cc2)CC1
 : -4%, 17%
- Cc1ccccc1-c1nnc(SCC(=O)N2CCCc3ccccc32)o1
 : 17%, 1%
- Cc1ccc(CNc2nc3c(S(=O)(=O)c4ccc(C)c(C)c4)nnn3c3ccc(Cl)cc23)cc1
 : 3%, -1%
- CCNS(=O)(=O)c1cc(C(=O)NC(C)C)ccc1OC
 : 57%[activator], 15%
- Cc1ccc(SCCNC(=S)Nc2cccc(Cl)c2C)cc1
 : 212%[activator], 19%
- Cc1nn(-c2ccccc2)c2sc(C(=O)Nc3cccc(O)c3)cc12
 : -4%, 16%
- Cc1ccc(SCC(=O)NC2(C#N)CCCC2)nc1
 : 4%, 1%
- c1cncc(CN2CCN(Cc3c[nH]c4ccccc34)CC2)c1
 : -13%, -10%
- Cc1cc(C)cc(NC(=O)CSCc2cc(=O)n3oc(C)cc3n2)c1
 : -3%, -2%
- O=C(Nc1ccc(F)cc1)N1c2ccccc2Sc2ccccc21
 : -6%, 17%
- Cc1cc(CN2CCN(C(=O)NC(C)Cn3cccn3)CC2)no1 (centres undefined)
 : 13%, -1%
- CCc1ccc(C(=O)c2cn(CC(=O)Nc3ccc(OC)cc3OC)c3ccc(CC)cc3c2=O)cc1
 : -7%, -9%
- CC(C)(C)NC(=O)NC(=O)CCl
 : 0%, 7%

Continuation:
Results follow in this order: StopGo RLuc, 2A firefly
- COc1ccc(C(=O)OCc2cc(=O)n3oc(C)cc3n2)cc1NC(=O)C(C)(C)C
 : 11%, 21%
- CCOc1ccc(C(=O)NCC(c2ccc3c(c2)OCO3)N2CCN(c3ccc(F)cc3)CC2)cc1 (centres undefined)
 : -11%, -15%
- Cc1cccc(NC(=O)CSc2nc3c(cc2C#N)CCCC3)c1
 : 3%, 76%[activator]
- O=C(Nc1ccc(F)cc1)c1ccc2c(c1)NC(=O)c1ccccc1S2
 : ?, ?
- Cn1c(SCc2nc3ccccc3c(=O)[nH]2)nnc1-c1cccnc1
 : -10%, -3%
- Cc1cccc(C(=O)Nc2cccc(OCc3cc(=O)n4cc(C)sc4n3)c2)c1
 : -12%, -11%
- Cc1ccc(S(=O)(=O)NCC(c2ccsc2)N(C)C)cc1 (centres undefined)
 : 54%[activator], 0%
- CCOc1ccc2c(=O)c(Oc3cc(C)ccc3C)coc2c1
 : 92%[activator], 15%
- Cc1ccc(-n2nnnc2SCc2nc(N)c3ccccc3n2)c(C)c1
 : ?, ?
- COc1ccccc1CNC(=O)Cn1ccc2ccccc21
 : 7%, 132%[activator]
- COC(F)(C(=O)Nc1ccccc1C(C)C)C(F)(F)F (centres undefined)
 : 3%, 5%
- CCOC(=O)c1c(-c2ccc(C)cc2)csc1NC(=O)c1cc(-c2ccc(C)c(F)c2)on1
 : -1%, -15%
- Cc1nc2c(C(=O)NCCc3ccccc3)c[nH]n2c(=O)c1Cc1ccc(F)cc1Cl
 : -1%, 19%
- COc1ccc(C2CC(=O)c3c(C)nc(N4CCN(C=O)CC4)nc3C2)c(OC)c1 (centres undefined)
 : 29%, 16%
- CCCNc1nc(N(C)C)nc(-n2cnc(SCC(=O)OCC)n2)n1
 : -8%, -1%
- COc1ccc(NC(=O)CSc2nc3c(oc4ccccc43)c(=O)n2-c2ccccc2)cc1OC
 : 50%[activator], -15%
- Cc1cc(Cl)ccc1OCC(=O)N1CCC(c2nc3ccccc3s2)CC1
 : ?, ?
- O=C(NCCCO)C(=O)NCC(c1ccc2c(c1)OCO2)N1CCOCC1 (centres undefined)
 : 26%, 0%
- Cc1ccc(C)c(NC(=O)CN2CCN(Cc3ccco3)CC2)c1
 : -5%, 14%
- CCC(=O)Nc1ccc(C(=O)Nc2cccc(C)c2)cc1
 : -11%, 7%
